# Assay outcomes (PubChem)
# PMP22 txn prim – modulates PMP22 transcription in S16 Schwann cells; 43,000 tested, 2% active; AID 1508649; Potency, µM (highest dose often 57.5 µM), for inactives: at the top dose activity change, negative = inhibition, hits mostly inhibitors; S16 Pmp22-F2sN Schwann cells (luciferase reporters placed in the Pmp22 gene), FLuc/NLuc coincidence luminescence, 24 h; active = clear falling dose curves in both reporters; inconclusive = both reporters move, but less clearly or upward; inactive = either reporter flat; the % is the NLuc reporter signal; also: % is scaled to controls: 0 for no effect and ±100 for the full control effect; some results filed as inactive show a strong effect at the top dose
#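 S16(c9) Schwann cells with FLuc/NLuc coincidence reporter in the Pmp22 3' UTR; compounds pin-transferred, 24 h at 37C. Dual-luciferase read: FLuc first, then NLuc after Stop&Glo, each 10 min at room temperature.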
# HTT prom inh – HTT promoter inhibition; HEK293 HTT promoter firefly luciferase reporter (activity 0% = vehicle and -100% = no light), 24 h; Potency, µM (top dose mostly 57.5 µM), without a hit: at the top dose activity change, negative = inhibition, hits mostly inhibitors; 48,000 tested, 0.93% active; active = well fitted inhibition curve with a large enough effect; inconclusive = small, poorly fitted or top-dose-only effect; inactive = no such curve, though single readings can be large or run the other way; also: nearly all actives have a fitted effect of over 50% in size
#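 Firefly luciferase readout (Dual-Glo, 10 min RT) after 24 h, 37 °C compound exposure (final up to 57.5 uM) of HEK293 reporter cells cultured 24 h beforehand; PTC124 at 50 uM final as control inhibitor; activity scaled vehicle 0%, zero RLU -100%.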
# Active calls of the source: *; ? = inconclusive; . = no result given; [ ] = another dose, or the depositor's remark. Potency is read from the fitted curve at half-maximal effect.
# Each structure is followed by: PMP22 txn prim, HTT prom inh
> Cc1nn(CC(=O)Nc2ccccc2F)c(=O)c2c(C)n(-c3ccc(Cl)cc3)nc12
  ?, ?
> Cc1ccc(Cl)cc1NC(=O)C1CCC(CNS(=O)(=O)c2cccc3nsnc23)CC1 (centres undefined)
  3%, -9%
> COc1ccc(/C=C\C(=O)NC2CC(=O)N(c3ccc(F)cc3)C2)cc1OC (centres undefined)
  -2%, 8%
> CCc1ccc(NS(=O)(=O)c2[nH]ncc2C(=O)OC)cc1
  -4%, 2%
> COc1ccc(/C=C(\C#N)c2nc(-c3cc(Cl)ccc3OC)cs2)cc1
  ?, -7%
> CCOc1ccc(C(=O)c2oc3ccccc3c2NC(=O)c2cc(=O)c3ccc(C)cc3o2)cc1
  -8%, 2%
> Cc1ccc(Cn2c(=O)n(Cc3ccccc3)c(=O)c3oc4ccccc4c32)cc1
  0%, -18%
> CCCc1cnc2c(c1SCC(=O)N1CCC(C)CC1)c(=O)n(C)c(=O)n2C
  ?, -29%
> CCOC(=O)c1ccc(NC(=O)Cc2noc3ccc(C)cc23)cc1
  15%, -1%
> O=S(=O)(NCC(c1ccccc1)N1CCc2ccccc21)c1ccccc1 (centres undefined)
  ?, ?
> CCOc1ccc(N(c2nc(-c3ccc(OC)c(OC)c3)no2)c2nc(-c3ccc(OC)c(OC)c3)no2)cc1
  -20%, 10%
> COc1cccc(NC(=O)CCc2nc(-c3cc(OC)c(OC)c(OC)c3)no2)c1
  ?, -26%
> CN1C[C@H](C(=O)N[C@]2(C)O[C@@]3(O)[C@@H]4CCCN4C(=O)[C@H](Cc4ccccc4)N3C2=O)C[C@@H]2c3cccc4[nH]cc(c34)C[C@H]21
  ., -4%
> CC(C)c1ccc(Nc2c(-c3ccc(N4CCOCC4)cc3)nc3ncccn23)cc1
  8%, -3%
> Cc1ccc(Cl)cc1N1CCN(S(=O)(=O)c2ccc3c(c2)CCCN3C(=O)C2CCC2)CC1
  -18%, -17%
> COc1ccc2c(c1)Cc1sc(NC(=O)c3cccc(F)c3)nc1-2
  ?, 15%
> O=c1oc2ccc3ccccc3c2cc1-c1nnc(Nc2cc(C(F)(F)F)ccc2Cl)s1
  ?, 18%
> Cc1cc(C)cc(OCC(=O)Nc2nonc2-c2ccc(Br)cc2)c1
  ?, -18%
> CCCCn1c(=O)n(-c2cc(OC)ccc2OC)c(=O)c2c3c(sc21)CN(C(C)=O)CC3
  ?, 13%
> Cc1cc(Nc2cccc(C(F)(F)F)c2)nc2ccc(NC(=O)c3ccc(N(C)C)cc3)cc12
  ?, ?
> CSc1cccc(Nc2cc(C(=O)NCCCN(Cc3ccccc3)C(C)C)c3ccccc3n2)c1
  ?, -17%
> Cc1cc2[nH]c(=O)c(=O)[nH]c2cc1S(=O)(=O)N1CCN(c2cccc(C)c2C)CC1
  -21%, -3%
> CCN(CC)c1ccc(NC(=O)CSc2nnc(C)c(=O)[nH]2)cc1
  -4%, -18%
> CC1COC2(CCN(c3nc(=O)c4cc(C(F)(F)F)cc([N+](=O)[O-])c4s3)CC2)O1 (centres undefined)
  ., 12%
> CCCCNC(=O)c1ccccc1NC(=O)CN(c1ccccc1)S(=O)(=O)N(C)C
  -2%, -17%
> COc1ccccc1NC(=O)CSc1nnc2c3ccccc3n(C(C)C)c2n1
  ?, ?
> COc1ccccc1-c1nc(CNC(=O)NC2CCCCC2)c(C)o1
  -1%, -5%
> N#Cc1ccc(Oc2ccc3c(c2)COB3O)cc1
  ., -1%
> CCOC(=O)c1cc(-c2ccccc2)n(CCCC(=O)Nc2ccc(C)cc2C)c1C
  ?, -27%
> COc1ccc(-c2nn(-c3ccc(F)cc3F)c3c2cnc2ccc(F)cc23)cc1
  ?, 3%
> COc1cccc2sc(N(Cc3cccnc3)C(=O)Cc3ccccc3)nc12
  -6%, ?
> O=C(CSc1nc2ccccc2n1Cc1ccccc1Cl)NCc1ccccc1
  ?, -36%
> O=C(c1ccccc1Br)N1CCC(c2nc3ccccc3o2)CC1
  -9%, -20%
> CSc1ncc(C(=O)NCc2ccc(C)cc2)c(C)n1
  0%, -7%
> COc1ccc(N2CCN(C(=O)C3CCN(c4nc5ccc(C)cc5[nH]4)CC3)CC2)cc1
  ?, ?
> CC[C@]1(O)C[C@H]2CN(CCC3=c4ccccc4=N[C]3[C@@](C(=O)OC)(c3cc4c(cc3OC)N(C)[C@H]3[C@@](O)(C(N)=O)[C@H](O)[C@]5(CC)C=CCN6CC[C@]43[C@@H]65)C2)C1
  ., ?
> CCn1cc2nc(SCc3cccc(C(F)(F)F)c3)n(Cc3ccc(Cl)cc3)c(=O)c2n1
  ?, -8%
> COCCCn1c(=N)c(C(=O)NC2CCCCC2)cc2c(=O)n3ccccc3nc21
  ?, -2%
> CCN1c2ccccc2-c2nc(SCC(=O)Nc3cc(F)ccc3F)ncc2S1(=O)=O
  ?, ?
> Cc1ccc(NC(=O)c2ncn(-c3ccccc3)n2)c(Cl)c1
  -12%, 76%[activator]
> O=C(c1ccc(Cl)cc1)N1CCC(c2ccncc2)CC1
  -26%, ?
> COc1ccc(C)cc1N(CC(=O)N1CCC(C)CC1)S(=O)(=O)c1ccc(C)cc1
  ?, -23%
> COCCn1c(SCC(=O)c2ccc(OC)cc2)nc2cc(C(=O)NC3CCCC3)ccc2c1=O
  -21%, -4%
> COc1ccc(Br)c2c1-c1nc(NC(=O)c3ccccc3F)sc1C2
  ?, -13%
> CCOc1ccc(CNC(=O)Cc2ccc(NC(=O)N3CCCCc4ccccc43)cc2)cc1OC
  3%, -27%
> N#Cc1nc(/C=C/c2ccc(F)cc2)oc1NC1CCCCC1
  -3%, -3%
> Cc1cc(C)cc(NC(=O)NCc2c(-n3cccc3)sc3c2CCCC3)c1
  -17%, -8%
> O=C(c1ccc2c(Cl)c3c(nc2c1)CCCC3)N1CCN(c2ccccc2F)CC1
  ?, -11%
> Cc1cccc(C(=O)Nc2nnc(S(=O)(=O)N3c4ccccc4CC3C)s2)c1 (centres undefined)
  59%, ?
> COc1ccc(C2CC(=O)c3cc(-c4nc(-c5cccc([N+](=O)[O-])c5)cs4)c(=O)n(-c4ccc(OC)cc4)c3C2)cc1 (centres undefined)
  0%, -3%
> O=C(CN1C=NS(=O)(=O)c2ccccc21)Nc1ccc(F)cc1
  9%, -4%
> Cc1ccc2sc(NC(=O)c3ccc4c(c3)OCCO4)nc2c1C
  -3%, -5%
> CCN(CCCNC(=O)c1ccc(Sc2ccc(Cl)cc2)c(NC(C)=O)c1)c1cccc(C)c1
  ?, ?
> COc1ccc(Cl)cc1NC(=O)CSc1nc(-c2cccs2)cc(C(F)(F)F)n1
  ?, ?
> COc1cccc2c1cc1c(=O)n(CC(=O)N3CCN(c4cccc(C(F)(F)F)c4)CC3)nc(C)n12
  -4%, -15%
> CCc1ccc(CNC(=O)CN2CCSc3ccccc32)cc1
  17%, -19%
> C[C@@]12CCC[C@H]1[C@@H]1CC[C@H]3C[C@@H](O)CC[C@]3(C)[C@H]1CC2
  ., 8%
> Cc1ccccc1CN1C(=O)C2(c3ccccc31)N(c1ccccc1)C(=O)CS2(=O)=O (centres undefined)
  -20%, -6%
> CCCn1c(=N)n(CC(O)COc2ccccc2OC)c2ccccc21 (centres undefined)
  ?, -6%
> COc1ccc2c(c1)c1c(c(=O)n(-c3cccc(C)c3)c(=O)n1CC(=O)Nc1c(C)cc(C)cc1C)n2C
  ?, -7%

# Additional entries.
# Each structure is followed by: PMP22 txn prim, HTT prom inh
> Cc1cc(C)c(NC(=O)CSc2nc3ccccc3nc2N2CCCCC2)c(C)c1
  ?, -12%
> CC(C)C(=O)Nc1nc2c(s1)CC(C(C)(C)C)CC2 (centres undefined)
  ?, -6%
> Cc1c(C(=O)N2CCOCC2)oc2c1-c1nn(CC(=O)NCc3ccccc3)cc1CC2
  -29%, -25%
> COCCNC(=O)CCn1c(=O)c2cc(OC)c(OC)cc2n(CC(=O)Nc2ccccc2OC)c1=O
  -19%, -6%
> CCc1ccc2oc(-c3cccc(NC(=O)C(C)(C)Oc4ccc(Br)cc4)c3)nc2c1
  -9%, 11%
> CCCC(=O)N1c2ncnn2C2(CCCCC2)[C@@H]2CCCC[C@@H]21
  -3%, ?
> COc1ccc(NC(=O)CCS(=O)(=O)c2cc3c(cc2C)NC(=O)CO3)cc1Cl
  4%, -6%
> CCCOC(=O)c1ccc(NC(=O)C2CC(=O)N(c3ccc(C)cc3)C2)cc1 (centres undefined)
  -12%, -2%
> Cc1cccc(-c2nc3c(C#N)c[nH]n3c2NC2CCCCC2)c1
  ?, 9%
> COc1ccc(S(=O)(=O)N(CC(=O)NCCSCc2ccccc2)c2ccc(C)cc2)cc1
  -15%, -15%
> CCOc1ccccc1-c1nc(SCC(=O)c2ccc(OC)c(Br)c2)n[nH]1
  ?, -7%
> O=C(Nc1ccc(NC(=O)c2cccs2)cc1)c1ccc(Br)cc1
  ?, -15%
> COc1ccc(NC(=O)Cn2c(C)cc3ccccc3c2=O)c(OC)c1
  -15%, 7%
> COc1ccc(Cn2c(CO)cnc2SCc2ccccc2C)cc1
  -11%, 61%[activator]
> O=C(COc1ccccc1)Nc1ccccc1C(=O)OCc1cc(=O)n2nc(C3CC3)sc2n1
  -18%, -13%
> Cc1ccc(C(c2sc3nc(-c4ccco4)nn3c2O)N2CCN(Cc3ccccc3)CC2)cc1 (centres undefined)
  ?, 1%
> COCCCNC(=O)Cn1c(=O)n(-c2ccc(C)c(C)c2)c(=O)c2c3c(sc21)CCCCC3
  -2%, -5%
> Cc1ccc(-n2ncc(C(=O)NCCCN3CCc4ccccc4C3)c2C2CCN(C(=O)OC(C)(C)C)CC2)c(C)c1
  ?, -14%
> COc1ccc(-n2c(SCc3nc(-c4ccc(C)cc4)no3)nnc2-c2ccccc2)cc1
  ?, -8%
> Cc1ccc(CNc2ccc(-c3nc(-c4ccccn4)no3)cc2[N+](=O)[O-])cc1
  -40%, 29%

# Overlap with the part before: 2 entries, then new ones.
# Each structure is followed by: PMP22 txn prim, HTT prom inh
> COc1ccc(-n2c(SCc3nc(-c4ccc(C)cc4)no3)nnc2-c2ccccc2)cc1
  ?, -8%
> Cc1ccc(CNc2ccc(-c3nc(-c4ccccn4)no3)cc2[N+](=O)[O-])cc1
  -40%, 29%
> COc1ccc(NC(=O)CN(C)S(=O)(=O)c2ccc3c(c2)CCC(=O)N3)c(OC)c1
  2%, -15%
> N[C@@H](Cc1cc(I)c(O)c(I)c1)C(=O)O
  ., 0%
> COc1ccccc1NC(=O)CCS(=O)(=O)c1ccc2nc(C)sc2c1
  -12%, -2%
> Cc1cc2c(cc1S(=O)(=O)CCC(=O)NC1CCC(C)CC1)OCC(=O)N2 (centres undefined)
  -18%, ?
> CC1CCN(c2nc3ccc(C(=O)NCc4ccccc4Cl)cc3s2)CC1
  -17%, 0.28µM*
> O[C@@H](c1cc(C(F)(F)F)nc2c(C(F)(F)F)cccc12)[C@H]1CCCCN1
  ., -28%
> CCc1cccc(NC(=O)C(CC(C)C)NS(=O)(=O)c2ccc3c(c2)oc(=O)n3C)c1 (centres undefined)
  ?, -34%
> O=C(Nc1cccc(Cl)c1)C1CCN(c2nc3ccccc3nc2C(F)(F)F)CC1
  ?, -6%
> Cc1ccc(-c2nc3cc(C(C)C)ccc3o2)cc1NC(=O)c1cccs1
  ?, 10%
> CCOc1ccc(NC(=O)CC2Nc3cccc4cccc(c34)NC2=O)cc1 (centres undefined)
  ?, -7%
> O=C(Cn1c(=O)oc2cc(S(=O)(=O)NCc3ccccc3)ccc21)NCc1ccc(Cl)cc1
  ?, ?
> CCOc1ccc(N2CC(NC(=O)c3cc4ccccc4o3)CC2=O)cc1 (centres undefined)
  5%, -2%
> Cc1ccc(C2=CC(c3ccccc3C)n3c(nc4ccccc43)N2)cc1 (centres undefined)
  ?, -2%
> CCOC(=O)c1[nH]c(C)c(CCC(=O)NCc2ccc(OC(C)C)cc2)c1C
  ?, -36%
> COc1cc(-c2nc3ncccn3c2Nc2ccc(C)cc2C)ccc1O
  5%, 6%
> COc1ccc(Cc2nc3c4cnn(-c5ccccc5F)c4ncn3n2)cc1
  11%, -24%
> CCN1CCN(c2oc(/C=C/c3cc(OC)c(OC)c(OC)c3)nc2C#N)CC1
  -9%, -12%
> CN1CCN(C(CNC(=O)C(=O)Nc2ccc(F)cc2)c2cccnc2)CC1 (centres undefined)
  6%, 33%[activator]
> O=C1Cc2cc(S(=O)(=O)N3CCN(c4ccccc4)CC3)ccc2N1
  17%, -15%
> CC(C)c1ccc2occ(CC(=O)Nc3cccc(C(F)(F)F)c3)c2c1
  ?, ?
> COc1ccc(OCC(=O)N2CCN(C(=O)c3cc(OC)c(OC)c(OC)c3)CC2)cc1
  -25%, 0%
> Clc1cccc(-n2ncc3c(NCCCc4ccccc4)ncnc32)c1
  7%, -24%
> Cc1ccc(-c2cn3c(n2)sc2cc(C(=O)NC4CCCCCC4)ccc23)c(C)c1
  4%, -2%
> O=C(c1ccc2c(c1)N(Cc1ccccc1F)C(=O)c1ccccc1S2(=O)=O)N1CCN(c2ccccn2)CC1
  ?, ?
> CCOC(=O)c1cc(S(=O)(=O)N2CCN(c3ccc(F)cc3)CC2)[nH]n1
  -2%, -16%
> CCN(CC)CCNC(=O)c1ccc2nc(CCc3ccccc3)oc2c1
  -43%, 23%
> Cn1cnc(S(=O)(=O)N2CCC(C(=O)N3CCN(c4ccc(Cl)cc4)CC3)CC2)c1
  10%, -25%
